Assay outcomes: PubChem, National Center for Advancing Translational Sciences (NCATS)
Cruzain noTriton = qHTS Assay for Promiscuous and Specific Inhibitors of Cruzain (without detergent); Cruzipain (Trypanosoma cruzi), P25779; purified cruzain, Z-FR-AMC fluorescence, no detergent; Potency, µM, without a hit: max response, negative = inhibition, usual class: inhibitors; actives 2.3% (n = 200,000); AID 1476, 2009;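 further: plate controls were enzyme without inhibitor for no effect and buffer without enzyme for full effect; nearly all actives have a fitted effect of over 40% in size; top concentration of the series not given in the record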
Target sequence (P25779 123-467 limits assumed): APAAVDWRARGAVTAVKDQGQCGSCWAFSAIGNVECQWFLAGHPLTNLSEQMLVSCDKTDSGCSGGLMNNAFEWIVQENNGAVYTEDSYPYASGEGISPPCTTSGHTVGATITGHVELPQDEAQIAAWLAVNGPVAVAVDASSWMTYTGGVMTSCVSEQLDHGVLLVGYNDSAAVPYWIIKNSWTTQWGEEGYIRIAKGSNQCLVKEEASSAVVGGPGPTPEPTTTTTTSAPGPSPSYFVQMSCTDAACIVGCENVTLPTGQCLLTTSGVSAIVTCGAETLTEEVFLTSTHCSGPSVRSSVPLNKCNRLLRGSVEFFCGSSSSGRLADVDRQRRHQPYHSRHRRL
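Purified cruzain at 1.5 nM, pre-incubated 15 min with compound at room temperature in 100 mM sodium acetate pH 5.5, 5 mM DTT, 0.00005% Triton X-100. Reaction started with 2 uM Z-FR-AMC; AMC fluorescence increase over 60 s gives rate.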
Cruzain inh Det = qHTS Assay for Promiscuous and Specific Inhibitors of Cruzain (with detergent); actives 0.43% (n = 200,000); Potency, µM, inactives show max response, negative = inhibition, actives largely listed as inhibitors; purified cruzain, Z-FR-AMC fluorescence, 0.01% Triton; Cruzipain (Trypanosoma cruzi), P25779;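 further: plate controls were neutral wells for no effect and buffer without enzyme for full effect; nearly all actives have a fitted effect of over 40% in size; top concentration of the series not given in the record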
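Cruzain (1.5 nM) preincubated 15 min at RT with compound in 100 mM sodium acetate pH 5.5, 5 mM DTT, 0.01% Triton X-100. Reaction started with 2 uM Z-FR-AMC; AMC fluorescence (ex 360/em 450 nm) change over 60 s gave rate.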
NS1 function inh = qHTS Assay for Inhibitors of Influenza NS1 Protein Function; S. cerevisiae slowed by influenza A NS1, growth recovery by OD600; Potency, µM (titrated, usually from 46.1 µM), for inactives: at the top dose activity, positive = more growth; actives 0.4% (n = 270,000); AID 2326, 2010; active means well fitted rising curve with a large enough effect; inconclusive means small, poorly fitted or top-dose-only effect; inactive means no such curve, though single readings can be large or run the other way; further: nearly all actives have a fitted effect of over 50% in size
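A cell-based growth assay was used: compounds that relieve NS1-induced slow growth of budding yeast raise OD600. Assay medium was yeast nitrogen base with ammonium sulphate and -URA supplement, pH 6.0, with 2% galactose.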
LASV entry inh = qHTS for Inhibitors of binding or entry into cells for Lassa Virus; Lassa virus pseudotype entry inhibition, cell reporter; control for the full effect not named in the record; actives 1.2% (n = 300,000); Potency, µM (top dose mostly 37.9 µM), for the others: at the highest dose activity change, negative = inhibition, usual class: inhibitors; active means well fitted inhibition curve with a large enough effect; inconclusive means small, poorly fitted or top-dose-only effect, or effect the other way; inactive means flat fitted curve, though single readings scatter; tested in HEK293 cells; further: on the % scale 0 is the no-effect control and ±100 the full control effect; nearly all actives have a fitted effect of over 50% in size; luciferase read-out
SARS PLpro yeast = qHTS of Yeast-based Assay for SARS-CoV PLP. S. cerevisiae expressing SARS-CoV PLpro, growth rescue; control for the full effect not named in the record. Potency, µM (doses to about 32.9 µM), for inactives: at the highest dose activity, positive = growth rescue. actives 0.19% (n = 330,000); active means well fitted rising curve with a large enough effect; inconclusive means small, poorly fitted or top-dose-only effect; inactive means no such curve, though single readings can be large or run the other way; further: 0% is about no effect; nearly all actives have a fitted effect of over 55% in size; growth read by luminescence after 48 h
StopGo reporter = High Throughput Screening for Foot and Mouth Disease Virus Antivirals. human cells with a luciferase reporter of 2A StopGo recoding; control for the full effect not named in the record. Potency, µM (doses to about 57.9 µM), for the others: at the highest dose signal change, negative = less light. actives 1.2% (n = 410,000); active = well fitted falling curve with a large enough effect; inconclusive = small, poorly fitted or top-dose-only effect; inactive = no such curve, though single readings can be large or run the other way; tested in HEK293T cells; further: on the % scale 0 is the no-effect control and ±100 the full control effect; nearly all actives have a fitted effect of over 45% in size; luciferase light after 4 h
Marburg entry inh = qHTS for inhibitors of binding or entry into cells for Marburg Virus | Marburg virus pseudotyped entry inhibition, cell reporter; control for the full effect not named in the record; about a third of the inactives were read at about 46 µM | actives 1.8% (n = 300,000) | Potency, µM (doses to about 37.8 µM), without a hit: top-dose activity change, negative = inhibition, usual class: inhibitors; active = well fitted inhibition curve with a large enough effect; inconclusive = small, poorly fitted or top-dose-only effect, or effect the other way; inactive = flat fitted curve, though single readings scatter; tested in HEK293 cells; about a fifth of its hits are not listed in these tables; further: on the % scale 0 is the no-effect control and ±100 the full control effect; luciferase read-out
RE007 growth inh = qHTS Assay for Inhibitors of the HIV-1 protein Vpr; S. pombe RE007 Vpr strain, BacTiter-Glo ATP luminescence, 24 h; control for the full effect not named in the record; Potency, µM (top dose mostly 92.2 µM), inactives show top-dose activity change, negative = less growth; actives 0.21% (n = 360,000); active = well fitted falling curve with a large enough effect; inconclusive = small, poorly fitted or top-dose-only effect; inactive = no such curve, though single readings can be large or run the other way;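 further: on the % scale 0 is the no-effect control and ±100 the full control effect; nearly all actives have a fitted effect of over 50% in size; the assay follows cell death caused by Vpr and the record does not say whether a fall means rescue or toxicity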
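Fission yeast strain RE007, carrying one chromosomally integrated HIV-1 vpr copy, was seeded at OD 0.01 in PMG+AL medium with 23 nL pinned compound. After 24 h at 30 °C and 99% humidity, viability was read by BacTiter-Glo luminescence.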
Numbers without * were called inactive; ? = inconclusive; · = no result given; & = joins results of further samples; [ ] = dose if it differs, or a comment. Unless noted, the call rests on the fitted dose curve; in most records, active means well fitted curve in the direction sought with a large enough effect; inconclusive means small, poorly fitted or top-dose-only effect, or another doubt; inactive means no such curve, though single readings can be large; an effect the other way counts as inactive or inconclusive. Potency means the concentration at half of the fitted maximal effect.

SMILES | Cruzain noTriton | Cruzain inh Det | NS1 function inh | LASV entry inh | SARS PLpro yeast | StopGo reporter | Marburg entry inh | RE007 growth inh
COc1cc(/C=C/C(=O)N2CCC=CC2=O)cc(OC)c1OC | -14% | -4.4% | · | · | · | ? | · | -15%[18.4 µM]
CCn1cc(CNC(=O)c2cc(-c3cc(OC)ccc3OC)nc3ccccc23)c(C)n1 | ? | -8.0% | 1% | -25% | -6% | ? | -22% | 6%
CCN(CC)S(=O)(=O)c1ccc(/C(O)=C(\C#N)c2nc3ccccc3n2C)cc1 | ? | -10% | -24% | ? | 5% | · | -24% | -3%
Cc1cc(C(C)(C)C)cc(S(=O)(=O)NCCO)c1C | 12% | 2.7% | 5% | 0% | -3% | 80%[activator] | -1% | 13%
CN(C(=O)c1ccccc1C(=O)OCC(=O)NCc1ccccc1)C1CCCCC1 | 11% | 0.8% | 5% | -32% | -6% | 0% | -18% | -11%
Cc1sc2nc(C3CC3)nc(N3CCN(C(=O)c4ccc(F)cc4)CC3)c2c1C | · | · | -2% | ? | -9% | -28% | ? | -20%
O=C(COCc1cc(-c2ccc3c(c2)OCO3)on1)Nc1cccnc1 | · | · | -8% | -1%[46.1 µM] | 1% | 0% | -1%[46.1 µM] | -2%
COc1ccc(-c2cnc(C)o2)cc1S(=O)(=O)Nc1c(C)cc(C)cc1C | 27% | -4.4% | · | -22%[46.1 µM] | · | 29% | · | ·
CC1CCCN(C(=O)COC(=O)C2CCN(S(=O)(=O)c3ccc4c(c3)OCCO4)CC2)C1 (stereo unspecified) | · | · | · | 17% | -1% | -22% | ? | -3%
COc1cccc(N2C(=O)CC(c3c[nH]c4ccccc34)C2=O)c1 (stereo unspecified) | ? | -1.7% | -13% | 5% | 2% | 3% | 21% | -20%
Cc1ccc(NC(=O)CCn2cccc2)cc1C | -3% | -0.3% | -4% | 15% | 6% | 25% | 25% | 7%
O=C(CN1C(=O)/C(=C/c2cccc(Br)c2)SC1=S)Nc1cccnc1 | · | · | -5% | -6% | -2% | -3% | 15%[46.1 µM] | -9%
CC(=O)c1c(O)cc(O)cc1O | -7% | -12% | · | · | · | -19%&-16% | · | 3%
COC(=O)c1ccc(C(=O)OC)c(NC(=O)COC(=O)C23CC4CC(CC(O)(C4)C2)C3)c1 | ? | -5.5% | -7% | ? | 0% | -27% | 11%[46.1 µM] | -4%
COc1ccccc1NCCC(=O)OCC(=O)Nc1ccccc1F | · | · | · | 15% | -2% | -4% | -1% | -23%
CC(NC(=O)c1ccc(N)cc1)c1ccccc1 (stereo unspecified) | · | · | 2% | -2%[46.1 µM] | -2% | -9% | 15%[46.1 µM] | 3%
O=C(N/N=C/c1c(Cl)cccc1Cl)c1ccccc1F | ? | 0.6% | 49% | ? | 2% | 21% | ? | -14%
CC(C)(C)c1ccc(C(=O)Nc2ccc(C=C(C#N)C#N)cc2)cc1 | 32µM* | -5.7% | -15% | ? | -41% | -11% | -9% | -26%
CCc1ccc(NC(=O)CNC(=O)[C@@H]2Cc3ccccc3CN2C(=O)OC(C)(C)C)cc1 | · | · | -5% | · | -4% | 24% | · | -3%
Cc1nnc(SCc2cc([N+](=O)[O-])cc3c2OCOC3)n(N)c1=O | · | · | · | 19%[46.1 µM] | 2% | 6% | -13%[46.1 µM] | 5%
O=C(Nn1cnnc1)c1cc2c(s1)CCCCC2 | -9% | -1.4% | -10% | -3% | 3% | 44%[activator] | 2% | 5%
COc1ccc(-c2noc3c2-c2nc(-c4ccccc4F)sc2CC3)cc1 | · | · | 5% | · | 0% | -20% | · | 42%
COc1ccc(OCC(=O)Nc2ccc(N3CCOCC3)cc2)c([N+](=O)[O-])c1 | · | · | 0% | · | 3% | -23% | · | 16%
Oc1ccc(-c2nnc(Nc3cccc(O)c3)c3ccccc23)cc1 | · | · | 2% | · | 0% | -16% | · | 15%
Cc1ccc2nc(SCC(=O)N3CC(C)OC(C)C3)nc(=O)n2c1 (stereo unspecified) | · | · | · | -3% | -2% | -3% | 25% | 0%

Pulled by compound from above, 3 records:
SMILES | Cruzain noTriton | Cruzain inh Det | NS1 function inh | LASV entry inh | SARS PLpro yeast | StopGo reporter | Marburg entry inh | RE007 growth inh
Cc1nnc(SCc2cc([N+](=O)[O-])cc3c2OCOC3)n(N)c1=O | · | · | · | 19%[46.1 µM] | 2% | 6% | -13%[46.1 µM] | 5%
O=C(N/N=C/c1c(Cl)cccc1Cl)c1ccccc1F | ? | 0.6% | 49% | ? | 2% | 21% | ? | -14%
CCc1ccc(NC(=O)CNC(=O)[C@@H]2Cc3ccccc3CN2C(=O)OC(C)(C)C)cc1 | · | · | -5% | · | -4% | 24% | · | -3%

Returning to the listing, starting 2 compounds before the break.
SMILES | Cruzain noTriton | Cruzain inh Det | NS1 function inh | LASV entry inh | SARS PLpro yeast | StopGo reporter | Marburg entry inh | RE007 growth inh
Oc1ccc(-c2nnc(Nc3cccc(O)c3)c3ccccc23)cc1 | · | · | 2% | · | 0% | -16% | · | 15%
Cc1ccc2nc(SCC(=O)N3CC(C)OC(C)C3)nc(=O)n2c1 (stereo unspecified) | · | · | · | -3% | -2% | -3% | 25% | 0%
CCC(=O)N1CCc2cc(S(=O)(=O)NC(CC(C)C)C(=O)NCCc3ccccc3)ccc21 (stereo unspecified) | -1% | 1.9% | · | 5%[46.1 µM] | · | 5% | ? | ·
S=C1NCCNC(=S)NCCOCCOCCOCCN1 | · | · | · | -8% | 5% | 6% | 2%[46.1 µM] | ?
O=C(Nc1ccc(C(=O)OCc2cc(=O)n3c4c(sc3n2)CCCC4)cc1)c1cccc(F)c1 | 1% | 0.0% | · | -9%[46.1 µM] | · | 2% | · | ·
O=C(NNC(=O)C1CCCO1)c1ccc(Br)cc1 (stereo unspecified) | -12% | -0.7% | 8% | 8% | 19% | 24% | 2% | 9%
O=C(COC(=O)CNC(=O)C1CCCCC1)Nc1ccc2c(c1)OCCO2 | · | · | · | ? | 0% | 8% | 8% | 3%
COc1cc(C2C(=O)N(C3CCCCC3)CC(=O)N2CCC2=CCCCC2)ccc1OC(C)C (stereo unspecified) | -3% | 1.5% | · | 17%[46.1 µM] | · | -27% | · | ·
Cc1c(C(=O)N(Cc2ccc(N(C)C)cc2)C2CCS(=O)(=O)C2)oc2ccccc12 (stereo unspecified) | -12% | -6.0% | 6% | ? | 0% | -5%&-5% | -27%&-11%[46.1 µM] | -1%
CCN(CC)S(=O)(=O)c1ccc(-c2nnc(SCC(=O)Nc3ccc(OC)c(OC)c3)o2)cc1 | ? | -1.4% | -4% | -13% | -1% | -9% | 7% | -2%[3.69 µM]
CC1CCCCN1C(=O)Cn1c(SCC(=O)N(C)c2ccccc2)nc2ccccc21 (stereo unspecified) | 2% | 0.3% | · | -19%[46.1 µM] | · | 3% | · | ·
COc1cccc(C2(O)CCN(C(=O)c3cccs3)CC2)c1 | 3% | 4.9% | -3% | 10% | 4% | -2% | 10%[46.1 µM] | 0%
Cc1ccc(C(O)P(=O)(OC2CCCCC2)OC2CCCCC2)cc1 (stereo unspecified) | ? | -0.7% | -32% | 4% | -21% | 0% | ? | 4%
CCOc1ccc(/C=N\NC(=O)CC(=O)NCCc2ccccc2)cc1 | · | · | 4% | · | 4% | -9% | · | 9%
c1ccc(-c2nnc(OCCN3CCOCC3)c3ccccc23)cc1 | 12% | 4.1% | -4% | 2% | 2% | -18% | -11% | -9%
CCOc1ccccc1OCCNC1CCCC1 | -8% | -1.1% | 4% | -3% | 18% | -5% | -1% | 5%
O=C(C[C@H]1C(=O)N(C2CCCCC2)C[C@@H]1Cc1ccccc1)Nc1ccccc1 | · | · | -10% | · | 0% | -5% | · | 11%
Cc1cccc2cc(COC(=O)C3CCCCC3)c(=O)[nH]c12 | -6% | 1.8% | 7% | -4% | 2% | -9% | 2% | -10%
COc1ccc(CNC(=O)CCc2c(C)nn(-c3ccc(N4CCOCC4)nn3)c2C)c(OC)c1 | -13% | -0.1% | · | 2%[46.1 µM] | · | -13% | · | ·
O=[N+]([O-])c1cccc(C2(O)COc3ccccc3O2)c1 (stereo unspecified) | · | · | 5% | ? | 0% | 6% | 11% | -2%
CCOC(=O)c1ccc(NC(=S)NC(=O)C2CCCC2)cc1 | · | · | -15% | 4%[46.1 µM] | 3% | 13% | -8%[46.1 µM] | 11%
Cc1ccc(-n2ncc(-c3nn[nH]n3)c2N)cc1 | · | · | 4% | 5%[46.1 µM] | 0% | 0% | -21%[46.1 µM] | 10%
Cc1cccc(Cn2c(CN3CCN(Cc4ccccc4)CC3)nc3c2c(=O)[nH]c(=O)n3C)c1 | -10% | 0.9% | -4% | · | -2% | -19% | · | 2%
COc1cc(NC(=O)C2CCCCC2)c(OC)cc1NC(=O)c1ccco1 | 14% | -1.8% | -7% | ? | 9% | 7% | 0%[46.1 µM] | -20%
CCOC(=O)c1c(NC(=O)CSc2cccc[n+]2[O-])sc(C(=O)Nc2ccccc2)c1C | · | · | · | -2%[46.1 µM] | -1% | 25% | ? | -5%
COC(=O)c1ccc(NC(=O)c2cc[n+]([O-])cc2)cc1 | · | · | 16% | 4%[46.1 µM] | 3% | 12% | 19%[46.1 µM] | 9%
Cc1ccc2c(c1)[nH]c1c(N3CCN(Cc4ccc5c(c4)OCO5)CC3)ncnc12 | -2% | -3.2% | -69% | · | -6% | · | 7% | ·
CCN(CC)CCCNC(=S)N(Cc1cccs1)Cc1cc2cc3c(cc2[nH]c1=O)OCCO3 | · | · | 1% | 6% | 0% | -3% | ? | -9%

Not a hit list. About 4.7% of those tested had a hit in this group.
